Assay outcomes: PubChem, several laboratories
RecA splice inh – inhibitors of M. tuberculosis RecA intein splicing; P9WHJ3; inhibition, %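 (about 9 µM by stock and volumes)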; AID 2221; 290,000 tested, 0.75% active; cell-free RecA intein splicing, fluorescence; in the data active = inhibition above about 30%; inconclusive = no clear call, values can overlap the other calls;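 note: 0% = vehicle wells and 100% = reference inhibitor control wells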
Target sequence (P9WHJ3 whole entry, looked up, canonical isoform): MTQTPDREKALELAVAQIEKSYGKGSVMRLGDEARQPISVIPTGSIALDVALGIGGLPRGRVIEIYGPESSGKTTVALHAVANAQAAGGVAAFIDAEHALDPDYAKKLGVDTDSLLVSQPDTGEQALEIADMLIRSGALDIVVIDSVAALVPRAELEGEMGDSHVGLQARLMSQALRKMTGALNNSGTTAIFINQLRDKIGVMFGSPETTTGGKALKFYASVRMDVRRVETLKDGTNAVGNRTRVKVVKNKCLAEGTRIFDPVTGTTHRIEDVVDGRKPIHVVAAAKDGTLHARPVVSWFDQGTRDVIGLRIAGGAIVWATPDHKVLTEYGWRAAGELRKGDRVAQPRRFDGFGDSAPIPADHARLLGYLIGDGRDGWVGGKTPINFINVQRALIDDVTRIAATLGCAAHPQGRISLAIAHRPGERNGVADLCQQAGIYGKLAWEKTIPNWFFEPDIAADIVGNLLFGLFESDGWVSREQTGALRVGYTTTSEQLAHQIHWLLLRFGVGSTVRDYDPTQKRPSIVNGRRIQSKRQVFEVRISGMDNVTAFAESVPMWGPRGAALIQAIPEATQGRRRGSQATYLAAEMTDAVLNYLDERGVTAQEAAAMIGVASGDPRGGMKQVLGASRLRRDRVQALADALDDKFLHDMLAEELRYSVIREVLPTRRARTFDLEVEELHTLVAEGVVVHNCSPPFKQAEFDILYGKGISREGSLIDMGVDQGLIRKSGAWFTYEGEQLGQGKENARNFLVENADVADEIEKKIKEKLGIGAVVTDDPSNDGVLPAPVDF
Mtb betalactam – beta-lactam sensitization of Mtb H37Rv. M. tuberculosis H37Rv growth with meropenem, percent inhibition; hits of this screen are not shown here. inhibition, % at 25 µM. 330,000 tested, 0.27% active;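 active = about 74% or more and at least 40 points above the plate without the antibiotic, then above 30% in a dose series; inconclusive = first-round hits that could not be retested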;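 note: growth measured after seven days incubation then overnight dye step; 0% = bacteria only wells and 100% = bacteria with antibiotic; twin plates without the antibiotic show which effects depend on it; some results filed as inactive read as strong as hits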
Arbovirus anti – blocks arbovirus infection. arbovirus infection cell-based antiviral screen. 200,000 tested, 0.37% active. inhibition, % at 10 µM;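 active = inhibition from about 30%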;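 note: bluetongue infection of BSR cells; cell survival read as ATP light after 72 h; 0% = infected wells without compound and 100% = uninfected wells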
Mtb growth – M. tuberculosis H37Rv growth inhibitors, H37Rv strain (AID 1626); M. tuberculosis H37Rv growth inhibition; higher % means a stronger effect; inhibition, % at 10 µM; hits with a dose series show IC50 in µM; 220,000 tested, 0.95% active;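 active = confirmed in a dose series; inconclusive = inhibition above 80% but not taken into the dose series; inactive = below 80% or under 30% at every dose of the series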;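 note: bacteria incubated seven days before Alamar blue readout; 0% = bacteria only wells and 100% = bacteria with antibiotic wells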
YopH PTP inh – YopH (Yersinia) phosphatase inhibition | fluorescence Ex485/Em525 | inhibition, %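 (about 10 µM by stock and volumes)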 | 140,000 tested, 0.16% active | AID 898;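 active = inhibition of 50% or more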;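 note: controls were vehicle for no effect and minimum signal wells for full effect; inactives centre near -20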
Arbovirus anti repeat – further read-out of Arbovirus anti, marked with its call; inhibition, %; measured here: 10K subset replicate screen; many hits read low in the repeat;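 first of two repeat runs on a subset; 0% = infected and 100% = uninfected wells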
Active calls of the source: *; u = inconclusive; x = not tested or not shown. These rows are one share of the data; the hit share may differ from the screen's.

Start of the data: the first six compounds, to show the layout:
SMILES	RecA splice inh	Mtb betalactam	Arbovirus anti	Mtb growth	YopH PTP inh	others
NC(=O)C1(N2CCCCC2)CCN(C2CC(=O)N(Cc3cccs3)C2=O)CC1 (stereo not given)	-4.3	7	4	x	-13
O=C(NCc1ccncc1)C(=O)N/N=C/c1ccc(OCc2ccccc2)cc1	1.6	-3	-11	8%	x
CCc1ccc(C(N)=S)cc1	0.2	55	7	80%	x
CCN(CC)C(=O)C1CCN(Cc2cccc(OCc3ccccc3)c2)CC1	2.4	-14	8	4%	-25
CC1=CC(=O)OC2CC3OC4C[C@@H](C)C5OC6CC7O[C@]8(C)C/C=C\C9OC%10CC%11OC(CC(C)CO)CC(O)[C@]%11(C)OC%10CC9OC8C[C@]7(C)O[C@]6(C)CCC5OC4C[C@]3(C)OC12 (stereo not given in full)	5.1	-7	0	8%	x
COc1ccccc1C/C(N)=N/OC(=O)COc1cc(C)cc(C)c1C	3.0	6	0	-2%	x

This part in full, previewed entries included:
SMILES	RecA splice inh	Mtb betalactam	Arbovirus anti	Mtb growth	YopH PTP inh	others
NC(=O)C1(N2CCCCC2)CCN(C2CC(=O)N(Cc3cccs3)C2=O)CC1 (stereo not given)	-4.3	7	4	x	-13
O=C(NCc1ccncc1)C(=O)N/N=C/c1ccc(OCc2ccccc2)cc1	1.6	-3	-11	8%	x
CCc1ccc(C(N)=S)cc1	0.2	55	7	80%	x
CCN(CC)C(=O)C1CCN(Cc2cccc(OCc3ccccc3)c2)CC1	2.4	-14	8	4%	-25
CC1=CC(=O)OC2CC3OC4C[C@@H](C)C5OC6CC7O[C@]8(C)C/C=C\C9OC%10CC%11OC(CC(C)CO)CC(O)[C@]%11(C)OC%10CC9OC8C[C@]7(C)O[C@]6(C)CCC5OC4C[C@]3(C)OC12 (stereo not given in full)	5.1	-7	0	8%	x
COc1ccccc1C/C(N)=N/OC(=O)COc1cc(C)cc(C)c1C	3.0	6	0	-2%	x
O=C(c1ccc(CS(=O)c2cccc(Cl)c2)o1)N1CCN(c2ccccn2)CC1 (stereo not given)	0.3	3	x	x	x
Cc1ccc(C)c(S(=O)(=O)N2CCCOC2CNC(=O)C(=O)NC2CCCC2)c1 (stereo not given)	2.4	-4	x	x	x
c1ccc(OCC2CCNCC2)nc1	0.0	-4	x	x	x
Cc1nnc(CN(C)C(=O)CC2C(=O)NCCN2Cc2ccccc2C)o1 (stereo not given)	1.0	9	x	x	x
Cc1cc(C)cc(-n2c(C)cc(/C=C3\C(=O)NC(=O)N(C)C3=O)c2C)c1	-5.1	8	8	1%	-31
COc1ccc(CCNC(=O)CSCc2ccc(Br)cc2)cc1OC	1.7	-3	x	x	x
CCCN1C(=O)c2[nH]nc(-c3cc(Cl)c(C)cc3O)c2C1c1ccc(O)c(OC)c1 (stereo not given)	19	-1	x	0%	x
O=C(N/N=C/c1cc([N+](=O)[O-])ccc1O)C1CCCCC1	0.6	95	-25	23%	3
CC(C)(C)C(=O)CCN1C(=O)C2(OCCO2)c2ccccc21	17	-1	1	-2%	26
COc1ccc(CC(=O)Nc2cccc3c2CCCC3)cc1	1.5	3	x	x	x
OCCNC(=S)Nc1cc(Cl)cc(Cl)c1	1.7	31	x	-2%	x
CC(C)CCN1CCN(C2CSCCSC2)CC1CCO (stereo not given)	-1.1	11	-3	-1%	x
COc1ccccc1NC(=O)CNc1ccc(F)c(Cl)c1	2.6	2	-2	-5%	-27
COCC1CCN(Cc2cn(-c3ccccc3F)nc2-c2cc(C)sc2C)CC1	1.7	4	11	2%	x
O=C(O)c1ccc(-c2sc(Nc3ccccc3)n[n+]2-c2ccc(F)cc2)cc1	-1.7	-8	x	x	x
CCCCCc1ccc(OCCC[n+]2ccccc2)c(CCCCC)c1	-3.7	96	x	u	x
O=C(CNC(=O)c1ccc(S(=O)(=O)N2CCCC2)cc1)N/N=C/c1ccc(Cl)cc1	-6.0	2	5	-3%	-32
Cc1ccc2cc(CN(CCCO)S(=O)(=O)c3ccccc3F)c(=O)[nH]c2c1C	-4.6	0	x	x	x
CC12CCC(=O)N1C(C(=O)Nc1cc(C(F)(F)F)ccc1N1CCOCC1)CS2 (stereo not given)	-0.9	-2	x	x	x
N#Cc1ccccc1NC(=O)CSc1nccn1CCc1ccccc1	-0.2	-6	-2	-1%	1
O=C(CSc1nc2ccccc2[nH]1)c1c[nH]c2ccccc12	4.7	-2	1	-5%	x
COc1ccc(OCCC(=O)OCC(=O)NC(=O)NC2CCCCC2)cc1	2.3	-4	x	x	x
Cc1cc(N)n(-c2cc(C)c3ccccc3n2)n1	0.8	2	10	8%	x
O=C1NC2=C(C(=O)c3ccccc32)C(c2ccccc2)N1 (stereo not given)	4.1	1	-1	3%	8
COC(=O)c1ccc(/C=C/c2ccc3cccc(OC)c3n2)cc1	-12	57	13	12%	-26
O=C(CCCNS(=O)(=O)c1cccc2nsnc12)NCc1ccc(Cl)cc1	1.8	-3	-3	-13%	-25
C/C(=N\Nc1nc(Cl)c(Cl)cc1Cl)c1ccc(S(=O)(=O)NCc2ccco2)cc1	-0.4	1	-2	14%	-31
Cc1ccc(NC(=O)c2cc3c(s2)CCCC3)cc1	3.0	71	-4	-6%	x
CCN1C(=O)[C@H]2[C@@H](c3ccc(-c4ccc(OC)cc4)cc3)N[C@@](Cc3ccccc3)(C(=O)OC)[C@H]2C1=O	2.9	-13	x	x	x
O=C(Nc1ccc(Cl)cc1)Nc1cccnc1	-1.6	3	4	-8%	-8
CC1(C)Cc2c(sc(NC(=O)COc3ccccc3)c2C#N)C(C)(C)N1	-2.4	-10	0	-3%	x
CCOC(=O)C1=C(C)NC2=C(C(=O)c3ccccc32)C1c1ccc([N+](=O)[O-])o1 (stereo not given)	1.4	69	x	7%	x
Cc1ccc(NC(=O)C2CCN(S(=O)(=O)c3cccs3)CC2)cc1	-1.7	-6	1	-2%	x
O=C(C(Cl)c1ccccc1)N1CCOCC1 (stereo not given)	-1.4	-9	x	x	x
CC(C)c1ccc(N2C(=O)NC(=O)/C(=C\c3cnc(-c4ccccc4)nc3)C2=O)cc1	2.9	-2	3	-4%	-15
CCn1c(SCC(=O)c2ccccc2)nnc1-c1cccnc1	x	2	2	-4%	x
O=C(CCN1CCOCC1)c1ccc2c(c1)OCCO2	1.8	93	-6	4%	-24
CCOC(=O)/C=C/C(=O)Nc1ccc(S(=O)(=O)Nc2cc(C)on2)cc1	-2.8	-3	x	x	x
C/C(=N\NC(=O)c1cccc(Br)c1)c1cccnc1	6.1	-1	x	x	x
O=c1[nH]c2cc3c(cc2cc1CN(Cc1cccnc1)C(=S)NCc1ccco1)OCO3	-3.5	-7	-1	-7%	x
O=C1C(c2ccccc2)NC(=S)N1C1CCCCC1 (stereo not given)	5.1	1	x	x	x
COC(=O)C(/C=N/O)NC(=O)c1ccccc1 (stereo not given)	4.1	-10	17	-1%	x
CCOc1ccc(NC(=O)CSc2ncc(-c3ccc(F)cc3)n2Cc2ccco2)cc1	1.6	-12	x	4%	x
CCOc1cc(N2CCOCC2)c(OCC)cc1NC(=O)COC(=O)CCn1c(C)csc1=O	-3.8	3	x	x	x
The list goes on.
SMILES	RecA splice inh	Mtb betalactam	Arbovirus anti	Mtb growth	YopH PTP inh	others
O=C(CCCn1ncn2c(cc3occc32)c1=O)NCc1cccc(Cl)c1	-2.7	-3	x	x	x
CN(C)S(=O)(=O)c1ccc(N2CCCC2)c(C(=O)NCc2ccccc2)c1	1.8	-20	-2	-7%	-5
COc1ccc(S(=O)(=O)N2CCOC2CNC(=O)C(=O)NCCc2c[nH]c3ccccc23)cc1C (stereo not given)	3.0	2	-25	19%	-31
CC(=O)C1=C(O)C(=O)N(c2ccc(S(N)(=O)=O)cc2)C1c1ccc([N+](=O)[O-])cc1 (stereo not given)	-3.6	-5	7	0%	-35
COCCCNC(=S)Nc1ccc2nc3n(c(=O)c2c1)CCCCC3	x	0	5	4%	x
O=C(NNC(=S)NCc1ccco1)c1ccccc1Br	-0.1	-3	x	x	x
COc1ccc(CNC(=O)CN(c2ccccc2)S(=O)(=O)c2ccccc2[N+](=O)[O-])cc1	0.9	-10	8	-2%	x
O=C(NC1CCCC1)c1ccccc1-c1ccccc1	-0.6	94	-10	10%	-2
CCC(C)NCCC(=O)Nc1ccc(Cl)c(S(=O)(=O)Nc2ccc(Cl)cc2)c1 (stereo not given)	0.8	5	-26	1%	x
CC1(C)OC(=O)C(=CNc2ccccn2)C(=O)O1	-2.0	2	x	0%	x
CN(CC(=O)O)S(=O)(=O)c1ccc2c(c1)n(C)c(=O)c(=O)n2C	-1.8	-14	7	-7%	x
Cc1ccc(NC(=O)CCS(=O)(=O)c2ccc(Br)s2)cc1	2.8	2	x	x	x
CC(C)N(Cc1nc(-c2ccccc2)no1)C(=O)CN(C)S(=O)(=O)c1ccccc1	-2.1	0	8	1%	11
COc1ccc(S(=O)(=O)CC2(O)CCN(C(=O)CC(C)C)CC2)cc1	-1.9	1	3	-6%	x
C/C(CC(C)(C)C1CCCCC1)=N\NC(N)=S	6.3	97	-44	u	-8
Cn1c(O)c(C(C#N)=C2N=c3ccccc3=N2)c2ccccc21	-2.6	0	-3	21%	-13
COc1ccc(CCNC2CCCCC2)cc1	-1.0	2	-2	-2%	x
Cc1ccc(C2=NOC(C)(c3nnc(Cc4ccccc4)o3)C2)cc1 (stereo not given)	-0.4	-11	x	-10%	x
O=C(CCn1nc(-c2ccccc2)ccc1=O)N1CCCC1	0.5	-3	4	x	-25
COC(=O)c1ccc(NC(=O)CNS(=O)(=O)c2cccs2)cc1	-0.7	7	1	0%	-29
COc1cc(/C=N/NC(=O)CCN2CCN(C(c3ccccc3)c3ccccc3)CC2)ccc1O	0.8	5	4	-8%	-31
CCN1C(=O)[C@H]2[C@@H](c3ccc(-c4ccc(C(C)=O)cc4)cc3)N[C@@](Cc3ccccc3)(C(=O)OC)[C@H]2C1=O	3.1	-11	x	x	x
CCOc1cc(Br)c(CC(=O)O)cc1OCC	-6.5	4	x	12%	x
CC(=O)N/N=C\c1ccccc1OC/C=C/c1ccccc1	-0.7	-4	x	x	x
O=C1CCc2cc(NS(=O)(=O)c3ccc(F)cc3)cc3c2N1CCC3	0.0	1	x	x	x
N#C/C(=C\N1CCN(Cc2ccc3c(c2)OCO3)CC1)c1nc2ccccc2s1	3.0	90	-4	7%	-41
COc1cc(C(=O)Nc2ccncc2)c([N+](=O)[O-])cc1OC	-4.1	58	x	13%	x
COc1ccc(N2CCN(C(=O)c3cc(=O)[nH]c4ccccc34)CC2)cc1	-3.1	-13	12	9%	x
Cc1cc2cc(CNC(=O)Cc3cccs3)ccc2n1C	23	94	-8	16%	x
S=C(NCc1ccco1)Nc1cc(Cl)c(Cl)cc1Cl	5.6	2	25	8%	24
O=C(NN1C(=O)C2C3CCC(O3)C2C1=O)c1ccc(Br)o1 (stereo not given)	-4.8	-7	4	0%	-27
CCSc1nnc(-c2ccncc2)o1	-2.9	-1	4	4%	4
CC1=NNC(=O)/C1=C\c1cn(-c2ccccc2)nc1-c1ccccc1	97*	71	-29	8%	x
Cc1cc(/C=C2\C(=O)NC(=O)N(Cc3ccccc3)C2=O)c(C)n1C1CC1	0.4	9	-7	7%	x
O=C(NC(=S)NNC(=O)c1ccccc1O)c1cccs1	13	43	x	x	x
Cc1onc(-c2ccccc2)c1C(=O)N1CCCN2C(=O)c3ccccc3C21 (stereo not given)	x	1	x	-8%	x
Cc1nn(-c2ccccc2)c(C)c1NC(=O)Cc1cccs1	x	-2	-2	6%	-14	Arbovirus anti repeat=-3
CC(=O)Nc1ccc(S(=O)(=O)N2CCN(c3cc(C)ccc3C)CC2)cc1	11	0	-7	-7%	-25	Arbovirus anti repeat=0
C[C@@H]1CC[C@]2(O[C@H](CCO)C[C@H](O)[C@H]2O)O1	-2.3	-6	x	-7%	x
O=C(Nc1ccc(N2CCOCC2)c(Cl)c1)c1ccco1	-0.5	-3	-4	5%	-16
CC(=O)N1CC2(C)CN(C(C)=O)CC(C)(C1)C2	-2.3	6	6	-8%	-28
O=C(CSCC(=O)Nc1cccc2ccccc12)Nc1cccc2ccccc12	4.8	-14	x	x	x
CCc1c(C)nc2cc(-c3ccc(OC)c(OC)c3)nn2c1N1CCCC1	0.9	94	-10	70%	-41
CCc1ccc(NC(=O)CSc2nc(N)c(NC(=O)c3ccc(F)c(F)c3)c(=O)[nH]2)cc1	-1.3	8	x	x	x
COc1ccc(S(=O)(=O)N(C)CC(=O)NCCN2CCOCC2)cc1C	-2.3	-1	x	x	x
O=C(CCn1c(=O)c2ccccc2n(Cc2cc(=O)n3ccccc3n2)c1=O)NCc1ccco1	1.4	6	-1	1%	-30
CC(=O)Nc1ccc(S(=O)(=O)n2cnc3cc(C)c(C)cc32)cc1	0.1	-11	1	x	-40	Arbovirus anti repeat=2
Cc1nn(C(C)C(=O)NCc2ccco2)c(=O)c2nn(-c3ccccc3)c(C)c12 (stereo not given)	3.7	-1	x	x	x
